Compound activity: PubChem BioAssay, National Center for Advancing Translational Sciences (NCATS)
ClpP mod = qHTS Assay for Activators of ClpP; purified B. subtilis ClpP, FRET peptide cleavage, 20 min; Potency, µM (titrated, usually from 57.5 µM), inactives show top-dose activity change, negative = active; actives 1.9% (n = 340,000); AID 651965, 2013; active = well fitted falling curve with a large enough effect; inconclusive = small, poorly fitted or top-dose-only effect; inactive = no such curve, though single readings can be large or run the other way; note: potency is the fitted concentration of half-maximal effect; the source files actives as falling curves though it sought activators and does not explain the sign; nearly all actives have a fitted effect of over 65% in size; many hits overshoot -100%
Target sequence (P80244 whole entry, looked up): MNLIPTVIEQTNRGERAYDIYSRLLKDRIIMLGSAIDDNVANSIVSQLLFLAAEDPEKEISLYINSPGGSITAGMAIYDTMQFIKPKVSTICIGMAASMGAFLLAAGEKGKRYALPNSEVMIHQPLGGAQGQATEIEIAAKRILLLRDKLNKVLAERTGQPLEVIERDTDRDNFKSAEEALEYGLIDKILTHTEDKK
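Purified B. subtilis ClpP, 10 microg/mL final in Tris/HCl pH8 with KCl, BSA, glycerol and Tween-20, cleaved an Abz/nitrotyrosine-quenched decapeptide. Fluorescence (ex 320, em 430) was read at 0 and 20 min at room temperature. Delta was normalized to 5.8 microM ADEP and DMSO/no-enzyme controls.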
gsp antagonist = qHTS for Antagonists of gsp, the Etiologic Mutation Responsible for Fibrous Dysplasia/McCune-Albright Syndrome: qHTS; gsp-mutant cells, cAMP HTRF, 30 min; control for the full effect not named in the record; Potency, µM (doses to about 76.9 µM), inactives show at the top dose activity change, negative = inhibition, usual class: inhibitors; actives 0.4% (n = 340,000); active = falling curve of any shape with a large fitted effect; inconclusive = falling curve, mostly with a smaller effect; inactive = flat or rising curve; cell line not stated here;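 note: intracellular cAMP measured with PDE inhibitor Ro 20-1724 present during compound exposure; potency is the fitted concentration of half-maximal effect; % is set by controls: 0 for no effect and ±100 for the full control effect; nearly all actives have a fitted effect of over 65% in size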
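Measurement of cellular cAMP by homogeneous time-resolved fluorescence following a 30 min compound exposure at 37C. The PDE inhibitor […] was present throughout; the assay buffer was DPBS with 0.05% BSA and 0.005% Tween 20.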
Menin-MLL FL inh = qHTS Assay for Inhibitors Targeting the Menin-MLL Interaction in MLL Related Leukemias: Competition With Fluorescein Labeled MLL-derived Peptide; 290,000 tested, under 10 active; FP activity change, % at 61.4 µM; Fluorescence polarization, fluorescein-MLL peptide displacement from menin; AID 1766, 2009; inconclusive = falling polarisation curve, or a change in total fluorescence; inactive = total fluorescence flat and polarisation flat or rising; no compound was filed as active; the % refers to the polarisation; negative = inhibition;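 note: % of control where 0% means no effect; inhibitors lower the polarisation; unlabelled MLL peptide was the positive control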
Sfp inh = qHTS Assay for Inhibitors of Bacillus subtilis Sfp phosphopantetheinyl transferase (PPTase); 4'-phosphopantetheinyl transferase ffp (Bacillus subtilis), Q9F4F7; Biochemical Sfp PPTase activity, qHTS; Potency, µM, inactives show max response, negative = inhibition, actives largely listed as inhibitors; actives 3.5% (n = 310,000); active = well fitted inhibition curve with a large enough effect; inconclusive = small, poorly fitted or top-dose-only effect, or another doubt; inactive = no such curve, though single readings can be large or run the other way;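 note: the enzyme is Sfp with the accession as filed and its product quenches rhodamine fluorescence; potency is the fitted concentration of half-maximal effect; 0% = enzyme reaction without inhibitor and -100% = no enzyme wells; top concentration of the series not given in the record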
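Fluorescence-quenching assay: 15 nM Sfp-PPTase preincubated 15 min at room temperature with compound, then 5 uM rhodamine-CoA and 12.5 uM BHQ-2-labelled YbbR peptide added. Fluorescence (ex 525/em 598 nm) read at start and after 30 min; difference gives rate.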
TRPV1 PAM = HTS Assay for Compounds that Act as Potentiators of the Vanilloid Receptor 1; Transient receptor potential cation channel subfamily V member 1 (Homo sapiens), Q8NER1; TRPV1-expressing cells, Fluo-8 calcium influx, capsaicin EC20 potentiation; host cell line not named in the record; control for the full effect not named in the record; potentiation, % at 8.33 µM; actives 0.02% (n = 320,000); AID 540277, 2011; active means potentiation above 80%; inconclusive means 30% to 80%; inactive means below 30%; note: 0% is about no effect
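TRPV1-expressing cells were cultured overnight at 35.5C and loaded with Fluo-8 calcium dye for 40 to 90 min at room temperature. After a 10 s baseline, compound was added and calcium influx was read kinetically for 3 min (ex 480/em 520 nm).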
gsp agonist = qHTS for Agonist of gsp, the Etiologic Mutation Responsible for Fibrous Dysplasia/McCune-Albright Syndrome: qHTS. gsp mutant cells, cAMP HTRF, 30 min; control for the full effect not named in the record. Potency, µM (doses to about 76.9 µM), for the others: at the top dose activation (cAMP increase), usual class: activators. actives 0.13% (n = 340,000); active = well fitted activation curve with a large enough effect; inconclusive = small, poorly fitted or top-dose-only effect, or another doubt; inactive = no such curve, though single readings can be large or run the other way; cell line not stated here;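 note: phosphodiesterase inhibitor Ro 20-1724 added with compounds to block cAMP breakdown; potency is the fitted concentration of half-maximal effect; nearly all actives have a fitted effect of over 60% in size; about a fifth of the inactives were tested at one dose only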
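Cells stably selected in G418 were plated at 2000/well, grown 16-24 hr, then given compounds in DMSO with the PDE inhibitor […] (300 uM solution added) for 30 min at 37C; cAMP was read by HTRF.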
TRPML1 blocker = qHTS for Inhibitors of the Human Mucolipin Transient Receptor Potential 1 (TRPML1); AID 624415, 2012; activity change, negative = inhibition, % (no concentration beside the values); TRPML1-inducible cells, Ca2+ dye fluorescence, FDSS; active compounds read low; inhibition of EC80 agonist-evoked calcium signal; Mucolipin-1 (Homo sapiens), Q9GZU1; actives 0.02% (n = 390,000); in the data active means activity change below about -50%; inconclusive means about -30% to -50%; inactive means above about -30%;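 note: stimulus is agonist 54-4 at its EC80 concentration; % is set by controls: 0 for no effect and ±100 for the full control effect; compound concentration not given in the record; the text of the record puts the active cut at -80%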
Target sequence (Q9GZU1 whole entry, looked up): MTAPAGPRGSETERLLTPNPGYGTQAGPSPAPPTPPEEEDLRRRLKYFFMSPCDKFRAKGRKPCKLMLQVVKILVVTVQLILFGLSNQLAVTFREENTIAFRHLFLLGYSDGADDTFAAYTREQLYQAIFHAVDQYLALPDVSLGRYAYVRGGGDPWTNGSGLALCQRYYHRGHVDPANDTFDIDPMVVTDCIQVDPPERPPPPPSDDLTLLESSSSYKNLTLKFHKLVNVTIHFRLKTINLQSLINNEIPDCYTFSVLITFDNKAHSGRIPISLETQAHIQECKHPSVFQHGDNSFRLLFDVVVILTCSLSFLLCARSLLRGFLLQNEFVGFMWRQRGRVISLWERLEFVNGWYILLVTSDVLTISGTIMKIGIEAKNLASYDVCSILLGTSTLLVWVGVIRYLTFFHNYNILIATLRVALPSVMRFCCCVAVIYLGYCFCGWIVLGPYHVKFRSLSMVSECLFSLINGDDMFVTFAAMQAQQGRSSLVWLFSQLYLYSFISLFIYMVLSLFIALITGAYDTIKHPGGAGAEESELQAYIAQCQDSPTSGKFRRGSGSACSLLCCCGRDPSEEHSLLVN
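Tet-induced TRPML1-DL cells loaded with Ca8 no-wash calcium dye were read kinetically on FDSS. Compound addition was followed by EC80 agonist 54-4 (4 uM final); inhibition was read over 110 s.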
Starred values were filed as active, the others as inactive; u = inconclusive; x = no result given; & = joins results of further samples; [ ] = remark or other dose.

SMILES	ClpP mod	gsp antagonist	Menin-MLL FL inh	Sfp inh	TRPV1 PAM	gsp agonist	TRPML1 blocker
O=C1CCCC(O)=C1N=Nc1c(Cl)cc(Cl)cc1Cl	1.8%	-1.5%	-0.2	-14.4%	-2.8	15.1%	0.9
CCCCNS(=O)(=O)c1ccc(NC(=O)c2c(-c3ccccc3Cl)noc2C)cc1	-0.7%	-15.5%	1.9	0.5%	15.3	14.9%	-6.7
O=C(NN1C(=O)NC2(CCCCC2)C1=O)c1ccc(Cl)c(Cl)c1	-1.3%	4.7%	x	x	8.9	0.2%	-0.3
O=C(O)C[C@@H](O)C(=O)O	0.3%	-32.1%	-0.2	26.3%	6.9	x	-11.6
Cn1c(SCC(=O)N2CCCc3ccccc32)nnc1-c1c[nH]c2ccccc12	0.6%	-5.9%	3.8	18.2%	4.0	u	16.5
CCN(CC)c1ccc(NC(=O)CCCCCN2C(=O)c3ccccc3C2=O)cc1	0.2%	-30.9%	-1.3	-11.5%	7.1	-13.1%	-1.5
CCCCNCc1cc(Cl)c(OCCC)c(OCC)c1	1.6%	11.6%	-1.4	1.2%	-0.2	21.7%	-1.3
CCOC(=O)c1c(-c2ccccc2Cl)cn2ccccc12	25.1µM*	1.1%	-1.2	-13.7%	-1.5	1.9%	14.9
Cc1cc(NC(=O)C2CCCN(S(=O)(=O)c3cccc4nonc34)C2)ccc1Br (stereo not given)	0.4%	x	x	x	10.8	x	18.3
CC(C)c1ccc(/C=N/NC(=O)CCNC(=O)c2ccccc2)cc1	x	-3.9%	0.4	7.3%	-10.1	u	-3.8
CCOC(=O)Cc1csc(NC(=O)c2ccc(F)cc2)n1	1.7%	3.4%	1.1	8.2%	-5.5	-27.8%	-7.3
CCSCC1COC(c2cccn2Cc2ccc(C)cc2)=N1 (stereo not given)	0.3%	u	-1.4	-4.2%	-2.6	-2.7%	-2.7
O=C(COC(=O)c1ccc(S(=O)(=O)N2CCCC2)cc1)NCc1ccc(F)cc1	-5.1%	0.4%	3.1	13.6%	-8.2	-24.8%	-4.5
O=C(CCn1cccc1)Nc1ccc(F)cc1	0.4%	9.3%	-2.3	5.5%	-6.6	-7.8%	-5.1
CCOC(=O)c1cc(S(=O)(=O)NCc2ccco2)cn1C	-3.8%	8.5%	-10.8	9.3%	10.2	10.4%	-1.2
CN(Cc1cccc2ccccc12)C(=O)c1cc(COc2c(F)cccc2F)on1	x	-9.1%	0.8	1.6%	-2.9	1.2%[15.4 µM]	7.4
O=C(O)C1=C[C@@H](c2ccc(Br)cc2)C[C@@H](OCc2ccc(CO)cc2)O1	0.1%	12.9%	-8.1	7.9%	-5.0	x	-5.9
CC1(C(=O)NCCc2c[nH]c3ccccc23)C=CC2(CCCCC2)N1C(=O)c1ccccc1 (stereo not given)	1.6%	-23.1%	0.9	13.6%	-12.7	u	4.3
O=C(Nc1cccc(F)c1)NC1(C(=O)N2CCOCC2)CCCCC1	-5.0%	2.7%	1.2	21.9%	-6.1	-9.3%[15.4 µM]	23.2
Cc1cc([N+](=O)[O-])nn1CC(=O)N1N=C(C(F)F)CC1(O)C(F)F (stereo not given)	0.8%	9.6%	2.2	-4.7%	-1.4	-45.0%[inhibitor]	-1.5
O=C(NCCCO)C(=O)NCC1OCCCN1S(=O)(=O)c1cccs1 (stereo not given)	-0.5%	5.1%	x	5.0%	3.7	4.9%	5.3
CC(CCCC(C)(C)O)NCc1cn[nH]c1-c1ccc2c(c1)OCO2 (stereo not given)	x	10.2%	-1.0	9.8%	5.7	-16.2%	-9.6
Cc1ccc2occ(C3NC(C(=O)O)CS3)c(=O)c2c1 (stereo not given)	-1.2%	14.9%	21.6	14.1µM*	-10.3	-41.4%[inhibitor]	23.2
CC(C)C(=O)NCCSc1c[nH]c2ccccc12	-9.2%	10.1%	-0.1	13.5%	2.5	-4.4%	9.4
CCOC(=O)CC(=O)Nc1nc2ccccc2s1	-3.1%	-3.6%	3.5	24.3%	20.4	-32.1%[inhibitor]	2.6
The list continues.
SMILES	ClpP mod	gsp antagonist	Menin-MLL FL inh	Sfp inh	TRPV1 PAM	gsp agonist	TRPML1 blocker
Cc1cccc(Cl)c1NC(=S)N1CCN(c2ccc([N+](=O)[O-])cn2)CC1	-2.0%	-19.9%	3.4	-11.0%	14.1	-8.5%[15.4 µM]	11.0
CCCCC1C(=O)CC[C@H]2[C@@H]1CC(=O)[C@@H]2C/C=C\CCCC(=O)O (stereo not given in full)	-0.7%	-15.8%	-1.5	13.7%	-2.0	x	0.7
O=C(CSc1nc2ncc(Br)cc2[nH]1)Nc1ccc2c(c1)OCO2	-0.8%	-4.1%	0.1	3.8%	-8.0	8.8%	-13.5
COc1ccc(/C=N\NC(=O)c2sc(N)nc2C)cc1OC	-4.5%	9.5%	8.6	17.9%	-7.2	2.4%	5.1
COc1ccc(N2CCN(C(=O)c3cc(=O)c4cc(C)c(C)cc4o3)CC2)cc1	x	-6.7%	13.1	5.2%	-20.8	-0.6%	36.4
COc1ccc(CN(C)C[C@H]2OCc3cnnn3CCCC(=O)N([C@H](C)CO)C[C@@H]2C)cc1	-2.5%	x	x	x	x	-76.9%	-12.5
CCOC(=O)C(Cc1ccccc1)C(=O)Nc1ccc(N(CC)CC)cc1 (stereo not given)	-0.5%	-20.0%	3.7	-8.2%	-1.3	-2.8%	13.0
CCOc1ccc(-c2csc(/C(C#N)=C\c3ccc(O)c([N+](=O)[O-])c3)n2)cc1	1.5%	-93.2%	8.6	79.4µM*	-6.8	-35.0%	11.1
FC(F)(F)c1nnc2ccc(Sc3ccccn3)nn12	0.3%	10.5%	-7.2	14.4%	-4.3	-45.4%[inhibitor]	-10.2
CC1CCc2nc(N)c(C#N)c(-c3cccn3C)c2C1 (stereo not given)	-9.3%	7.8%	5.5	11.7%	-8.5	u	-0.8
O=C1CN(c2ccccc2)C(=S)N1c1ccccc1	-1.8%	8.0%	4.8	13.3%	-2.0	-9.2%[15.4 µM]	17.3
NS(=O)(=O)c1ccc(NC(=O)COC(=O)CSCc2ccc(F)cc2)cc1	1.4%	4.8%	x	x	-19.2	1.8%	-3.3
O=C(NCCc1ccccc1)C1CCC(CNS(=O)(=O)c2ccccc2)CC1 (stereo not given)	-2.9%&0.3%	-4.1%	6.8	-7.6%	5.9	4.9%	3.0&-0.2
CCOC(=O)C1=C(C)NC(=S)NC1c1ccsc1 (stereo not given)	0.1%	-2.7%	-1.1	16.1%	-2.6	-57.4%[inhibitor]	-20.9
CC(OC(=O)CCc1nc(=O)c2ccccc2n1C)C(=O)NCc1ccc2c(c1)OCO2 (stereo not given)	-2.7%	-2.3%	3.4	-5.7%	-14.7	9.3%	u
CC(C)(C)c1cc(C(c2cccnc2)N2CCN(CCO)CC2)cc(C(C)(C)C)c1O (stereo not given)	-2.5%	19.4%	1.8	20µM*	-20.0	2.1%	-13.3
CCC1CCCCN1C(=O)COC(=O)c1ccc(Br)o1 (stereo not given)	1.5%	7.5%	x	x	3.3	-18.8%	25.2
COc1ccc(C(=O)OCC(=O)NCC2CCCCC2)c(OC)c1	x	-2.7%	x	x	7.4	57.2%[15.4 µM]	-13.0
COc1ccccc1C(=O)COC(=O)c1ccc(-n2cnnn2)cc1	-1.2%	-3.0%	x	x	-8.1	19.9%[15.4 µM]	15.5
CCCOC(=O)Nc1sc2c(c1C(=O)OCC)CCC2	-9.2%	-8.8%	12.1	14.1µM*	-14.0	1.5%	5.5
COc1cccc2cc(C(=O)NCc3ccc(C)cc3)c(=O)oc12	x	2.0%	-8.4	-6.1%	-1.6	6.3%[15.4 µM]	-5.5
O=C1C2ON(c3ccccc3)C(c3cccnc3)C2C(=O)N1c1ccccc1 (stereo not given)	0.9%	-3.9%	1.9	12.8%	25.5	14.5%	-22.6
COc1ccc(CC(=O)Nc2cccc(S(=O)(=O)N3CCCC3)c2)cc1OC	1.0%	-21.5%	x	x	-8.8	u	-11.2
NNC(=O)c1ccc(CSc2cccc3cccnc23)cc1	x	-5.7%	4.3	16.6%	-5.2	-5.2%[15.4 µM]	-2.3
CC1=CC(c2ccc(Cl)cc2)n2nc(NS(=O)(=O)c3ccc(C)cc3)nc2N1 (stereo not given)	22.4µM*	-7.5%	0.4	-4.0%	1.7	u	-4.7
CCc1ccccc1NC(=O)c1cc2sccc2n1C	-2.1%	-14.2%	-3.9	-4.8%	-32.0	-19.3%	-3.8
CCc1cc(C(=O)NNC(=S)NCC2CCCO2)cs1 (stereo not given)	-0.4%	7.1%	-0.7	12.1%	-2.9	15.1%	0.7

5 entries drawn at random from the list so far:
SMILES	ClpP mod	gsp antagonist	Menin-MLL FL inh	Sfp inh	TRPV1 PAM	gsp agonist	TRPML1 blocker
CC1=CC(c2ccc(Cl)cc2)n2nc(NS(=O)(=O)c3ccc(C)cc3)nc2N1 (stereo not given)	22.4µM*	-7.5%	0.4	-4.0%	1.7	u	-4.7
COc1ccc(N2CCN(C(=O)c3cc(=O)c4cc(C)c(C)cc4o3)CC2)cc1	x	-6.7%	13.1	5.2%	-20.8	-0.6%	36.4
COc1ccccc1C(=O)COC(=O)c1ccc(-n2cnnn2)cc1	-1.2%	-3.0%	x	x	-8.1	19.9%[15.4 µM]	15.5
FC(F)(F)c1nnc2ccc(Sc3ccccn3)nn12	0.3%	10.5%	-7.2	14.4%	-4.3	-45.4%[inhibitor]	-10.2
CCc1ccccc1NC(=O)c1cc2sccc2n1C	-2.1%	-14.2%	-3.9	-4.8%	-32.0	-19.3%	-3.8
